RanGTP-Imp inh = disruptors of Ran-importin-beta complex formation – biochemical, FRET, CFP-Ran, YFP-importin-beta, homogeneous, primary screen; cell-free CFP-Ran/YFP-importin-beta FRET ratio; inhibition, % (concentration not given with the values); actives 1.1% (n = 300,000); AID 2216;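 active means most replicates above 15%; inconclusive means exactly half above 15%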;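 further: 0% = DMSO wells and 100% = Ran loaded with GDP instead of GTP; wells of about 40 µL received 100 nL stock; the first replicate is given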
B2AR ag = agonists of human beta-2 adrenergic receptor inducing internalization; P07550; Am2.2-beta2AR cells, FAP receptor internalization, flow cytometry; reference of the scale not given here; response, % (test concentration not listed); actives 0.43% (n = 340,000);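 active means response above a set limit, near 3 SD of response in nonfluorescent compounds, cut at about 42% in these data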;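 further: stock transfer was 100 nL into about 11 µL; a reference agonist was the positive control; negative values mostly stem from fluorescent compounds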
Target sequence (P07550 whole entry, looked up): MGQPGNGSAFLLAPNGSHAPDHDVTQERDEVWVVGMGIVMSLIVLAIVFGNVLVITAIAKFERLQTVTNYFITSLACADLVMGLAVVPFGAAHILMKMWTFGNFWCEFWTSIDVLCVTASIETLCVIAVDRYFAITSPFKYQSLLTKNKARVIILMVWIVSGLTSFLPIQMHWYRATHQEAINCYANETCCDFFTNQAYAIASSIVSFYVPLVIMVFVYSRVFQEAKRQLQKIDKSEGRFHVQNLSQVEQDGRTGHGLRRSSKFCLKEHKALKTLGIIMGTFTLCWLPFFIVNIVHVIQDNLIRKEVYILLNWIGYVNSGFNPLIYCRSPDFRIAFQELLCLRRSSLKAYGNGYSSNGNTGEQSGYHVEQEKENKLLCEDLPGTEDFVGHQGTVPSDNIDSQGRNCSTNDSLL
HNF4A DNA FP = change in binding of human HNF4 alpha to DNA. activity change, % at 10 µM. HNF4a-FITC DNA binding, fluorescence polarization, 1 h. actives 0.3% (n = 360,000); in the data active means activity change above about 30%, passing the limit was not always enough;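 further: controls were the assay level and a saturating level of protein; the project sought stronger binding though the title names inhibitors; some compounds called inactive have numbers as strong as hits; positive values seem to mean higher polarization but the record does not say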
Target sequence (P41235 whole entry, looked up): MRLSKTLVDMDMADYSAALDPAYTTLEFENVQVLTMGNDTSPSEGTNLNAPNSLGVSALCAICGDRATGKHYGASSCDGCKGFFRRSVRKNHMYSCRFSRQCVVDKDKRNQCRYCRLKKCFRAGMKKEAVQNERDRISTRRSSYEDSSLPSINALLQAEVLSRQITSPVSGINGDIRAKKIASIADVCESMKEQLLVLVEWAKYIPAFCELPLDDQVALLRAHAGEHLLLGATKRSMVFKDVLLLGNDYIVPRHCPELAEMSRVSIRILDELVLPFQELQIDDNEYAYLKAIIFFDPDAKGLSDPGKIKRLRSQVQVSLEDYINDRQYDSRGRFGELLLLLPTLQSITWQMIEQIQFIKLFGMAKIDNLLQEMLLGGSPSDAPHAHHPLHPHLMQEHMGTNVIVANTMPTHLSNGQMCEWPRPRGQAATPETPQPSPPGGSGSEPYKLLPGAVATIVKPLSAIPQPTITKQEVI
ALR H2O2 inh = inhibitors of human sulfhydryl oxidase ALR; P55789; purified ALR, DTT oxidation, H2O2 HRP-luminol luminescence; inhibition, % (concentration not given with the values); actives 3.8% (n = 290,000); AID 485317;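 active means mean and each replicate at 75% or more; inconclusive means only one of the two met; inactive means neither met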;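 further: stock transfer was 7.5 nL into about 7.5 µL; 0% = neutral wells and 100% = wells with inactivated enzyme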
Target sequence (P55789 whole entry, looked up): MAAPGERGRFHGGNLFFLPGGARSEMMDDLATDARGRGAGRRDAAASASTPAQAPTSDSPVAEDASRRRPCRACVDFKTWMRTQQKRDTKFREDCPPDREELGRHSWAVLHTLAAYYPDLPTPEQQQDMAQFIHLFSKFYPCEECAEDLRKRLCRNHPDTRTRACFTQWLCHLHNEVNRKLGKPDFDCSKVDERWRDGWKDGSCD
Vif A3G = HIV-1 Vif–A3G interaction blockers – biochemical, TR-FRET, GST-Vif 1-94, biotin-A3G peptide, dose response retest, primary screen (AID 1117319) | TR-FRET GST-Vif / biotin-A3G peptide binding; higher % means a stronger effect; test concentration not given here; strong numbers were not always called active | one-dose inhibition, %; IC50 in µM for titrated hits | actives 0.57% (n = 260,000);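 active means above the screen mean plus three standard deviations and confirmed in dose response; inconclusive means results disagree or hit not tested in dose response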;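 further: Vif residues 1-94 fused to GST binding biotinylated APOBEC3G peptide 110-148; 0% = full assay without inhibitor and 100% = GST in place of GST-Vif; retest series ran down from 100 µM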
Calb FLC = C. albicans growth modulation with fluconazole; C. albicans CaCi-2 (fluconazole-resistant clinical isolate) + fluconazole, Alamar Blue growth, 48 h; growth inhibition, % (no concentration beside the values); actives 0.57% (n = 300,000); AID 1979;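 active means most replicates above 75%; inconclusive means exactly half above 75%; inactive means most below 75%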;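 further: all wells also contain fluconazole at 8 µg/ml as a sub-toxic cotreatment; 0% = median of DMSO wells and 100% = median of geldanamycin control wells; wells of about 8 µL received 7.5 nL stock; the first replicate is given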
LANA-H2A inh = blocks KSHV LANA binding to histone H2A/H2B; cell-free LANA-H2A/H2B peptide, fluorescence polarization; inhibition, % (concentration not given with the values); actives 0.6% (n = 320,000); in the data active means inhibition mostly above about 10%, no sharp cut-off; inactive means mostly below about 6.7%;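 further: stock transfer was 7.5 nL into about 10 µL; 0% = median of vehicle wells and 100% = median of positive control wells; one replicate is shown; the record names a cut of 25% in any replicate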
Active calls of the source: *; ? = inconclusive; . = not tested or not shown. No enrichment for hits, and some 6.3% of all compounds hit somewhere here.

(1) COC(=O)c1ccccc1Oc1ccc(NC(=O)CCCl)cc1
(2) O=C(c1ccccn1)N1N=C2/C(=C/c3ccccc3)CCCC2C1c1ccccc1 (centres undefined)
(3) COc1ccc2[nH]cc(CCNC(=O)c3ccco3)c2c1
(4) CCOC(=O)c1c(C)cc(C)[nH]c1=O
(5) C/C(=N\Nc1ccc([N+](=O)[O-])cc1)c1ccc(-n2nncc2C)cc1
(6) CCn1c(COc2cccc(C)c2)nc2ccccc21
(7) CCOC(=O)c1ccc(N(CC(=O)NC2CCCC2)C(=O)CNC(=O)c2ccco2)cc1
(8) COc1cccc(CNCC(=O)Nc2ccc(N3CCOCC3)cc2)c1

compound no.	1	2	3	4	5	6	7	8
RanGTP-Imp inh	-2.5	-0.6	.	-1.5	1.9	0.3	-0.6	-1.2
B2AR ag	13	-2	-8	3	9	-5	0	1
HNF4A DNA FP	-0.8	1.1	5.8	1.4	21	5.9	0.7	0.8
ALR H2O2 inh	3	-15	22	-3	.	21	-6	99*
Vif A3G	-5%	-13%	.	.	-3%	1%	7%	72%
Calb FLC	-22	7	.	-8	11	4	-4	-12
LANA-H2A inh	-0.1	0.0	-8.7	-2.7	0.7	-0.7	3.5	-2.5

(9) Cc1noc(C)c1S(=O)(=O)Nc1ccc(C(=O)N2CCCCC2)cc1
(10) CCSc1nnc(NC(=O)c2nn(C(C)C)c(=O)c3ccccc23)s1
(11) O=C1C=C(c2cc(Cl)cc(Cl)c2)C[C@@H](c2ccc(F)cc2)C1
(12) COc1cccc(OC)c1C(=O)OCC(=O)N1CC(C)CC(C)C1 (centres undefined)
(13) O=C(CN(Cc1ccccc1F)C(=O)c1csnn1)NC1CCCCC1
(14) CCO[C@H]1OC(C(=O)O)=C[C@@H](c2csc3ccccc23)[C@@H]1CCCO
(15) CN(Cc1ccccc1)C(=O)c1[nH]cnc1C(=O)Nc1nccs1
(16) C=CCOC(=O)C1=C[C@H](c2csc3ccccc23)C[C@H](OCc2ccc(CO)cc2)O1

compound no.	9	10	11	12	13	14	15	16
RanGTP-Imp inh	-1.0	8.8	.	.	-0.7	1.5	.	-1.5
B2AR ag	-1	-1	1	0	-6	1	-17	1
HNF4A DNA FP	2.9	1.1	-2.4	-1.6	-1.6	-2.9	3.5	0.9
ALR H2O2 inh	2	-4	4	8	-1	5	-1	-10
Vif A3G	1%	-4%	.	-6%	.	-5%	.	.
Calb FLC	-3	-6	.	.	1	-11	.	13
LANA-H2A inh	3.9	-3.8	-0.4	-2.2	-0.3	1.9	1.7	-2.8

Continued (2 carried over from the part before).
(15) CN(Cc1ccccc1)C(=O)c1[nH]cnc1C(=O)Nc1nccs1
(16) C=CCOC(=O)C1=C[C@H](c2csc3ccccc23)C[C@H](OCc2ccc(CO)cc2)O1
(17) Cc1ccccc1Nc1nc(N)nc(COC(=O)c2cccc(S(=O)(=O)N(C)C)c2)n1
(18) CCNC(=O)NC(=O)C(C)OC(=O)c1cccn1C (centres undefined)
(19) O=C(NCCN1CCOCC1)c1cc(=O)[nH]c2ccc(Br)cc12
(20) COc1ccc(C2/C=C\CN(C(=O)NC34CC5CC(CC(C5)C3)C4)CC(=O)N2Cc2ccc(F)cc2)cc1 (centres undefined)
(21) CCCCN(C)CCCNC(=O)c1cn(C)c2ccc(S(=O)(=O)N(C)C3CCCCC3)cc2c1=O
(22) CC[C@@H](C)[C@H](C(CC(=O)N1CCCC1[C@@H](OC)[C@H](C)C(=O)N[C@H](Cc1ccccc1)c1nccs1)OC)N(C)C(=O)[C@H](NC(=O)[C@@H](C(C)C)N(C)C)C(C)C (some centres undefined)
(23) Cc1cccc(C)c1OCc1cc(C(=O)N2CCN(Cc3nccn3C)CC2)no1
(24) CCOC(=O)c1sc(N(Cc2ccccc2)C(=O)COC(=O)c2cnccn2)nc1C

compound no.	15	16	17	18	19	20	21	22	23	24
RanGTP-Imp inh	.	-1.5	-3.2	-2.7	2.2	-0.3	0.2	.	1.6	1.9
B2AR ag	-17	1	-12	17	5	0	4	14	-4	-5
HNF4A DNA FP	3.5	0.9	1.2	-2.2	-0.1	-2.0	3.2	-1.2	-0.7	7.9
ALR H2O2 inh	-1	-10	-4	-8	-4	.	2	.	-26	-26
Vif A3G	.	.	.	-2%	-1%	.	.	-2%	.	-7%
Calb FLC	.	13	0	-5	-3	3	-2	.	2	2
LANA-H2A inh	1.7	-2.8	-1.6	-2.9	-1.2	3.8	4.4	.	-3.3	3.9

Three compounds from above, sorted by molar mass, highest first:
(20) COc1ccc(C2/C=C\CN(C(=O)NC34CC5CC(CC(C5)C3)C4)CC(=O)N2Cc2ccc(F)cc2)cc1 (centres undefined)
(7) CCOC(=O)c1ccc(N(CC(=O)NC2CCCC2)C(=O)CNC(=O)c2ccco2)cc1
(19) O=C(NCCN1CCOCC1)c1cc(=O)[nH]c2ccc(Br)cc12

compound no.	20	7	19
RanGTP-Imp inh	-0.3	-0.6	2.2
B2AR ag	0	0	5
HNF4A DNA FP	-2.0	0.7	-0.1
ALR H2O2 inh	.	-6	-4
Vif A3G	.	7%	-1%
Calb FLC	3	-4	-3
LANA-H2A inh	3.8	3.5	-1.2

(next part)
(25) Cc1ccc(C)c(OCCN2CCOCC2)c1
(26) Cc1ccc(C(=O)CSc2nc(C(C)C)nc3ccccc23)cc1
(27) Cc1ccc(NC(=O)Cc2ccc(F)cc2)cc1
(28) Cc1ccc(N=C2c3ccccc3C(=O)C2[N+](=O)[O-])cc1C (centres undefined)
(29) COCCNC(=O)CN1C(=O)COc2ccc(S(=O)(=O)N3CCCCCC3)cc21
(30) Nc1nnc(Cc2ccc(F)cc2)s1
(31) Clc1cccc(N/N=C/c2ccc(N3CCOCC3)s2)c1
(32) O=C(O)CCn1c(SCc2ccccc2)nc2ccccc21

compound no.	25	26	27	28	29	30	31	32
RanGTP-Imp inh	2.3	6.7	-6.1	4.7	4.5	5.1	5.3	2.9
B2AR ag	-9	-5	-2	11	-4	4	0	-17
HNF4A DNA FP	0.1	-0.4	1.1	1.6	3.3	-1.4	2.0	-0.7
ALR H2O2 inh	-6	98*	3	-17	1	-12	-4	-4
Vif A3G	.	-6%	-3%	13%	-7%	3%	.	7%
Calb FLC	-4	27	-12	-1	1	-7	11	-7
LANA-H2A inh	0.6	4.7	-0.5	3.6	.	0.7	-2.3	4.6

(33) CN(CC(=O)Nc1cccc2c1CCCC2)S(=O)(=O)c1ccc(Br)cc1
(34) CCCc1nnc(SCC(=O)Nc2ccc(Cl)cc2Cl)o1
(35) O=C(CN1C(=O)S/C(=C/c2ccncc2)C1=O)N1CCOCC1
(36) Cc1ccc(C(=O)N2CCN(c3ccccc3)CC2)cc1C
(37) CC(C)N(C(=O)[C@H]1CC(CC(=O)NCCc2ccccn2)C(=O)N2CCc3c([nH]c4ccccc34)[C@]12C)C(C)C (some centres undefined)
(38) CN(Cc1cn(C)nc1-c1ccccc1F)C1CCOC1 (centres undefined)
(39) COCCNC(=O)c1cc2c3ccccc3n(C)c2s1
(40) O=C(N/C(=C/c1ccc(F)cc1)C(=O)N1CCOCC1)c1ccccc1

compound no.	33	34	35	36	37	38	39	40
RanGTP-Imp inh	0.2	0.5	-0.9	2.9	.	4.6	1.7	1.6
B2AR ag	-1	-7	-3	1	0	-9	-7	4
HNF4A DNA FP	-1.2	3.7	-3.2	1.5	-4.8	1.6	1.2	-1.6
ALR H2O2 inh	0	-6	-14	?	0	-3	99*	.
Vif A3G	?	.	2%	>100µM*	-3%	.	28%	.
Calb FLC	2	3	-10	0	.	-37	-3	-1
LANA-H2A inh	2.2	1.1	-3.0	4.6	-386	1.0	-1.2	.

(41) O=C(Nc1ccccc1)Nc1ccc2ccccc2n1
(42) COc1ccccc1NC(=S)N(Cc1cccnc1)Cc1ccco1
(43) CCCC(=O)c1c(NC(C)C)cc(C)oc1=O
(44) COC(=O)c1ccc(-n2c(C)cc(-c3csc(NC(=O)c4ccc(S(=O)(=O)N(C)C)cc4)n3)c2C)cc1
(45) Brc1ccc(-c2ccc(/C=N/Nc3nc4ccccc4[nH]3)o2)cc1
(46) CCOc1ccc(NC(=O)c2ccc(OCC3CCCO3)cc2)cc1S(=O)(=O)N(CC)CC (centres undefined)
(47) CCCn1c(=O)c(C(=O)NCCc2ccc(OC)c(OC)c2)c(O)c2ccccc21
(48) O=C(O)c1cc(Cl)c(Cl)cc1C(=O)N1CCCC1

compound no.	41	42	43	44	45	46	47	48
RanGTP-Imp inh	1.6	-1.8	1.0	0.4	64*	.	?	2.4
B2AR ag	8	-9	-21	7	6	4	21	-1
HNF4A DNA FP	-1.9	2.0	-1.5	3.1	2.0	-0.4	1.2	-0.3
ALR H2O2 inh	5	-6	-6	0	-1	.	-8	-10
Vif A3G	-4%	.	?	2%	.	-3%	.	31%
Calb FLC	1	3	8	-2	50	.	-8	-7
LANA-H2A inh	-4.3	2.1	-5.0	3.7	-4.7	-0.8	5.9	-0.4

Screen by screen, quoted from above.
Nos. 2 to 8 in Calb FLC, in turn: 7, ., -8, 11, 4, -4, -12

(next part)
(49) O=C(COC(=O)C1CC1)Nc1ccc(Cl)cn1
(50) CCOc1cccc(N2C(=O)CC(N(CCc3ccc(OC)c(OC)c3)C(=O)CC)C2=O)c1 (centres undefined)
(51) CCOc1ccc(OCCSc2nc3ccccc3[nH]2)cc1
(52) COc1ccc(OC)c(N=C2C(=O)Nc3ccccc32)c1
(53) CCN(CC(=O)Nc1cc(S(=O)(=O)N2CCOCC2)ccc1Cl)Cc1ccccc1
(54) NC(=S)NN=C(c1ccc(Br)cc1)C1CC1
(55) O=C(CC(C(=O)O)N1CCOCC1)Nc1ccc(Cl)cc1 (centres undefined)
(56) OCC[C@H]1C[C@@H](O)[C@H](O)[C@@]2(Cc3ccccc3O2)O1

compound no.	49	50	51	52	53	54	55	56
RanGTP-Imp inh	.	-1.4	2.1	.	.	.	-0.6	.
B2AR ag	9	1	-7	-3	-3	0	-1	-5
HNF4A DNA FP	-1.1	1.1	-2.3	3.7	0.1	-1.0	-0.9	4.7
ALR H2O2 inh	-8	2	-2	?	.	.	-2	-25
Vif A3G	.	-2%	-7%	8%	0%	-8%	4%	.
Calb FLC	.	-5	-12	6	.	.	-2	.
LANA-H2A inh	5.9	12	1.6	4.0	3.6	.	1.5	-1.9

(57) O=c1[nH]c2c(c(=O)[nH]1)CCCCCC2
(58) O=C(Nc1ccc2c(c1)OCCO2)C1CCCN1C(=O)Nc1ccc(F)cc1 (centres undefined)
(59) O=C(NCC(c1ccco1)N1CCc2ccccc2C1)C(=O)Nc1ccccc1 (centres undefined)
(60) Cc1noc(C)c1COC(=O)CCOc1ccccc1
(61) CC(=O)c1ccc(OCc2cc(C(=O)N(C)CCOc3ccc(C)cc3)no2)cc1
(62) COc1cc(/C=N/n2cnnc2)ccc1Oc1nc(Cl)ncc1F
(63) Cc1nnc(SC/C=C/c2ccccc2)n(N)c1=O
(64) N#CC1=C(S)N(c2ccccc2)C(c2cccs2)NC1=O (centres undefined)
(65) CCOc1ccc(OCCOCCN2CCCC2)cc1

compound no.	57	58	59	60	61	62	63	64	65
RanGTP-Imp inh	.	-0.6	3.1	-1.8	1.5	3.0	.	6.4	0.4
B2AR ag	17	40	-1	10	86*	-6	-3	-4	-5
HNF4A DNA FP	-2.3	1.5	2.7	0.6	3.3	-2.6	-1.6	0.4	5.6
ALR H2O2 inh	.	-6	-13	3	-5	-27	.	23	-10
Vif A3G	3%	.	-2%	31%	-7%	6%	22%	32%	.
Calb FLC	.	-3	-19	-2	-1	11	-10	-4	-11
LANA-H2A inh	.	0.0	-3.9	-0.3	-3.0	1.7	-0.5	2.0	3.9
